VCAM-1 imaging = inhibitors of TNFa-induced VCAM-1 surface display, imaging, high-content imaging, pooled HUVEC, TNFa stimulus (AID 456). 0.2% of 10,000 active. HUVEC TNFa-induced VCAM-1 surface expression, immunofluorescence imaging; numbers were filed only for top-ranked candidate wells. inhibition, % at 5 µM, or IC50 in µM where a hit was titrated;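 active means top tenth filtered wells with inhibition above zero that passed visual or statistical confirmation; inactive means the rest, including hits rejected on review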;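 further: 0% = stimulated vehicle wells and 100% = unstimulated cells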
VCAM-1 augmentation = enhancers of VCAM-1 display on endothelial cells, imaging, high-content imaging, pooled HUVEC, TNFa stimulus (AID 457) | Pooled HUVEC, TNFa-induced VCAM-1 immunofluorescence imaging; hits of this screen are not shown here | calls only | 0.2% of 10,000 active;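 active means a top-ranked rise in VCAM-1 staining upheld on image or statistical review; inactive means the rest, including candidates rejected on review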;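 further: compounds tested at 5 µM in the well; cells exposed to compound for 24 hours before fixing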
FPRL1 ligand = human FPRL1 ligands by binding competition, primary screen, cell-based, FPR counter-screen, flow cytometry; 0.3% of 24,000 active; AID 441, 2006; inhibition, %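 (tested at 6.7 µM)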; FPRL1-expressing cells, fluorescent ligand binding inhibition;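 further: 0% = buffer alone and 100% = receptor blocker peptide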
Target sequence (P25090 whole entry, looked up): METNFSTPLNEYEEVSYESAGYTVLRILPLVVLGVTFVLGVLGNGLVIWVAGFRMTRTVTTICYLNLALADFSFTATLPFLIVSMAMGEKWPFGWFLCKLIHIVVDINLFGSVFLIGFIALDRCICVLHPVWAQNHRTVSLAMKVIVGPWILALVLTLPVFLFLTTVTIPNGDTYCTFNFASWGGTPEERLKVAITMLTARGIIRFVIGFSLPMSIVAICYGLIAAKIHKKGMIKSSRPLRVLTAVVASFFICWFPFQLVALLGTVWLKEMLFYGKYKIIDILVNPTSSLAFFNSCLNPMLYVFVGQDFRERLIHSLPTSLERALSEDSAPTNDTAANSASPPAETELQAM
VCAM-1 inhibition = inhibitors of TNFa-induced VCAM-1 surface display, cell-based, plate reader, pooled HUVEC, TNFa stimulus (AID 454); HUVEC TNFa-induced VCAM-1 surface immunofluorescence, plate reader; numbers were filed only for top-ranked candidate wells; 0.2% of 10,000 active; inhibition, % at 5 µM;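 active means compound among top-ranked inhibitors of TNF-induced VCAM-1 adhesion protein staining, with the hit upheld by image or statistical review; inactive means the rest, including hits rejected on review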;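 further: 0% = TNFa with vehicle and 100% = cells without TNFa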
FPR ligand = human FPR ligands by binding competition, primary screen, cell-based, FPRL1 counter-screen, flow cytometry; fMet-Leu-Phe receptor (Homo sapiens), P21462; 0.74% of 24,000 active; inhibition, %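 (tested at 6.7 µM)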; AID 440, 2006; FPR-expressing cells, fluorescent ligand binding;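 further: 0% = buffer wells and 100% = receptor blocker peptide wells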
Target sequence (P21462 whole entry, looked up): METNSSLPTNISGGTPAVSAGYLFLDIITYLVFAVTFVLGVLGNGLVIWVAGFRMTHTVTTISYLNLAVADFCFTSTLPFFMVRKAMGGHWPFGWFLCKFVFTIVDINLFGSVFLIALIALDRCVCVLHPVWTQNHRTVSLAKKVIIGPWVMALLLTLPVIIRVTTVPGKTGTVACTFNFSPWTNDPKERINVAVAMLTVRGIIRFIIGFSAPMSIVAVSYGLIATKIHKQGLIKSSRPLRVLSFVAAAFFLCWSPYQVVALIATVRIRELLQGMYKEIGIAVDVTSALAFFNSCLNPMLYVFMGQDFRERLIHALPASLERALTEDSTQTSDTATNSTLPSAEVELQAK
* marks the source's active call; other numbers are inactive results; i = inactive; . = no result given.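 How the source made its calls, unless noted: active means mean above 30%; inconclusive means self-fluorescent; inactive means the rest.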 Some of the compounds tested (hit frequency here may not be typical).

Each structure is followed by: VCAM-1 imaging | VCAM-1 augmentation | FPRL1 ligand | VCAM-1 inhibition | FPR ligand
CCOC(=O)N1CCN(CC(=O)Nc2c(C(=O)OC)[nH]c3cccc(Cl)c23)CC1
 : i | i | 0 | i | -1
CCOC(=O)N1CCC(N2C(=O)c3ccccc3C2Nc2cccnc2)CC1 (configuration not stated)
 : i | i | 0 | i | 1
Cc1ccc2oc(=O)c3cnn(CC(=O)NCCc4ccsc4)c3c2c1
 : . | . | -3 | . | 0
COc1ccc2cnn(-c3ccccc3)c(=O)c2c1OC
 : i | i | 45* | i | 36*
CCc1ccccc1-n1cnc2cc(C(=O)O)ccc21
 : . | . | 4 | . | -4
C=C1c2cc(CC)ccc2NC(=O)N1c1ccc(C)cc1
 : . | . | -8 | . | -6
COc1ccc(S(=O)(=O)n2nc(OC(=O)c3c(-c4ccccc4Cl)noc3C)cc2N)cc1
 : . | . | -1 | . | -2
CCCCCn1c(=O)[nH]c2cc(C(=O)NCc3ccc4c(c3)OCO4)ccc2c1=O
 : . | . | 0 | . | 2
O=C(Nc1ncc2c(n1)CC(c1ccccc1)CC2=O)c1ccco1 (configuration not stated)
 : i | i | 2 | i | 14
CCCCCc1c(C)nc(Nc2nc(C)c3cc(OC)ccc3n2)[nH]c1=O
 : 80% | i | -3 | 79 | 6
COc1ccc(-c2c(C)oc3c(CN4CCN(CCO)CC4)c(O)ccc3c2=O)cc1OC
 : . | . | 28 | . | 31*
CCOc1cc2[nH]c(=O)n(Cc3cccc(OC)c3)c(=O)c2cc1OCC
 : . | . | -3 | . | 1
CCCOC(=O)C1=C(C)NC2=C(C(=O)C(C(=O)OC)C(C)C2)C1c1ccc(N(CC)CC)cc1 (configuration not stated)
 : . | . | 1 | . | 10
Cc1c(/C(O)=C2\C(=O)C(=O)N(CCN(C)C)C2c2cccs2)cnn1-c1ccccc1 (configuration not stated)
 : . | . | 2 | . | -9
CCn1cc(C2=NCC(C)O2)c2ccccc21 (configuration not stated)
 : i | i | 3 | i | -3
COc1ccc(OC)c(C2CC(=O)c3c([nH]c(C(=O)OC(C)C)c3C)C2)c1 (configuration not stated)
 : . | . | 13 | . | 9
Cc1cc(C)c(C#N)c(SCS(=O)Cc2ccccc2)n1 (configuration not stated)
 : . | . | -4 | . | -2
COc1cc(OC)c(-c2nn3c(C4CCCCC4)nnc3s2)cc1OC
 : i | i | 1 | i | 12
O=C(CN1C(=O)C2C3C=CC(C3)C2C1=O)NCCN1CCCc2ccccc21 (configuration not stated)
 : . | . | 0 | . | 1
CCCC(=O)Nc1ccc(NC(=O)c2ccccc2OC)cn1
 : i | i | -2 | i | -4
O=C(CCn1c(=O)oc2ccccc21)N1CCOCC1
 : . | . | 2 | . | -6
CC1CCN(S(=O)(=O)c2ccc3c(c2)c(=O)c(C(=O)N2CCCCC2)cn3C)CC1
 : . | . | -7 | . | -5
Cc1nc2c3cnn(-c4ccccc4)c3ncn2n1
 : i | i | -1 | i | 1
COC(=O)CCn1nnc(-c2ccc(C)cc2)n1
 : i | i | 5 | i | 14
COCCOC(=O)C1=C(C)NC(=O)CC1c1cc2c(cc1Br)OCO2 (configuration not stated)
 : i | i | 6 | i | -2
COc1cccc(/C(O)=C2/C(=O)C(=O)N(c3ccccn3)C2c2ccc(OC)c(OC)c2)c1 (configuration not stated)
 : . | . | -6 | . | -1
C=CCNC(=O)CN(c1cccc(Br)c1)S(C)(=O)=O
 : i | i | 1 | i | 11
Cc1cc(C)n2cc(CSc3nnnn3C)nc2n1
 : i | i | -4 | i | -3
CCOCCCNC(=O)c1ccc2c(c1)ncn2C1CCCC1
 : i | i | 2 | i | -4
Cc1cccc(C2CC(c3ccc(Cl)cc3)Nc3nc(N)nn32)c1 (configuration not stated)
 : i | i | 8 | i | 1
COc1ccc(NC(=O)CSc2nc3c(c(=O)n2-c2ccccc2)SCC3)c(OC)c1
 : . | . | 15 | . | 8
O=C(O)c1ccc(COc2ccc3c4c(c(=O)oc3c2)CCC4)o1
 : . | . | 2 | . | 1
COc1ccccc1-c1nnc(Nc2nc3c(OC)cccc3s2)o1
 : . | . | 4 | . | -4
O=C(NCc1cccs1)C1CCN(S(=O)(=O)c2cccc3cccnc23)CC1
 : . | . | 4 | . | -2
O=C(Cn1cnc2c(nnn2Cc2ccc(Cl)cc2)c1=O)NC1CCCC1
 : . | . | 1 | . | -3
Cc1cccc(C)c1-n1nnnc1SCSc1nnnn1-c1c(C)cccc1C
 : i | i | 0 | i | -3
CCCCNC(=O)C(C#N)c1nc2ccccc2nc1N1CCCC1 (configuration not stated)
 : i | i | -5 | i | -13
O=C(Nc1cccc(F)c1)C1C2C=CC3(CN(CCCN4CCOCC4)C(=O)C13)O2 (configuration not stated)
 : i | i | 0 | i | -1
CCOC(=O)N1CCN(c2c(N3CCOCC3)c(=O)c2=O)CC1
 : . | . | 2 | . | -2
CCOc1ccc2nc(SCc3ccc(C(=O)OC)o3)[nH]c2c1
 : i | i | -5 | i | -10
CC(=O)N1CCC(N(CCN2CCOCC2)C(=O)Nc2ccc(Cl)c(Cl)c2)CC1
 : . | . | 0 | . | 1
Cc1cc(OCC(=O)N2CCCC2)cc(C)c1Cl
 : i | i | 3 | i | 0
CC(NC(=O)CCNS(=O)(=O)c1ccc2c(c1)c(=O)n(C)c(=O)n2C)c1ccccc1 (configuration not stated)
 : . | . | 3 | . | -2
Cn1c(=O)c(=O)n(C)c2cc(S(=O)(=O)N3CCCCCC3)ccc21
 : . | . | -6 | . | 0
CC(=O)N1CCN(S(=O)(=O)c2ccc(S(=O)(=O)NC3CC3)cc2)CC1
 : i | i | -1 | i | -2
COc1ccc(OCCOC(=O)c2cccc(-n3cnnn3)c2)cc1
 : i | i | -2 | i | 0
OCCN1CCN(CC(O)COc2ccc3ccccc3c2)CC1 (configuration not stated)
 : i | i | -1 | i | 4
O=C(O)C1CCCCC1C(=O)Nc1ccc2c(c1)CCC2 (configuration not stated)
 : . | . | 3 | . | -6
COc1cc(NC(=O)C2CCCN(S(=O)(=O)c3cnc[nH]3)C2)cc(OC)c1 (configuration not stated)
 : . | . | -2 | . | -9
Cc1[nH]nc(-c2ccc(O)c(C)c2O)c1-c1cnn(-c2ccccc2)c1
 : i | i | -10 | i | -6

Following part:
Each structure is followed by: VCAM-1 imaging | VCAM-1 augmentation | FPRL1 ligand | VCAM-1 inhibition | FPR ligand
CN(C)[C@@H]1C(=O)C(C(N)=O)=C(O)[C@@]2(O)C(=O)C3=C(O)c4c(O)ccc(Cl)c4[C@@H](O)[C@H]3C[C@@H]12
 : i | i | 0 | i | 12
COc1cccc(C2/C(=C(/O)c3ccccc3)C(=O)C(=O)N2CCCC(=O)O)c1 (configuration not stated)
 : . | . | 3 | . | -6
CCOc1cc(S(=O)(=O)N2CCC(Cc3ccccc3)CC2)c(OCC)cc1-n1cnnn1
 : 74% | i | 2 | i | 0
CC(C)CCNC(=O)C1CCN(S(=O)(=O)c2ccc3c(c2)CCC(=O)N3)CC1
 : . | . | 1 | . | 1
CCN1C(=O)NC(c2cc(Br)ccc2OC)C(C(=O)OC)=C1C (configuration not stated)
 : i | i | 5 | i | -9
O=C(CN1C(=O)c2cccc3cccc1c23)Nc1ccccc1C(=O)NCc1ccco1
 : i | i | 0 | i | 1
CCC(OC(=O)c1cccs1)C(=O)NCc1ccco1 (configuration not stated)
 : i | i | 1 | i | 2
CCN(CC)CCNC(=O)c1cc2c(-c3ccc(Cl)cc3)nn(C)c2s1
 : . | . | -7 | . | -2
CCOC(=O)Cc1nnc(NC(=O)CSc2nnc3c4ccccc4n(C(C)C)c3n2)s1
 : i | i | -3 | i | 3
Cc1cc(Nc2ccc(C)c(Br)c2)n2nc(C)nc2n1
 : . | . | 0 | . | -1

Next structures.
Structure	VCAM-1 imaging	VCAM-1 augmentation	FPRL1 ligand	VCAM-1 inhibition	FPR ligand
C[C@H](CS)C(=O)N1CCC[C@H]1C(=O)O	i	i	4	i	-3
O=C1c2cccnc2C(=O)N1CO	.	.	5	.	-4
CS(=O)(=O)NCc1nnc(SCC(=O)NC2CCCCC2)n1-c1ccc(F)cc1	i	i	3	i	-1
Fc1cccc(-c2cc3nc4c(c(N5CCN(c6cnccn6)CC5)n3n2)CCCC4)c1	i	i	-6	i	0
Cc1ccc(NC(=O)c2ccco2)c(NC(=O)CN2C(=O)c3ccccc3C2=O)c1	i	i	6	i	-4
CCOC(=O)CSc1nc2nc(C)cc(C)n2n1	.	.	3	.	8
COc1cc([C@@H]2[C@H]3CN(C)CC=C3C(C#N)=C(N)C2(C#N)C#N)cc2c1OCO2	i	i	-2	i	-6
O=C(Nn1cnc2ccccc2c1=O)c1ccccc1Cl	.	.	14	.	-8
COc1ccc(C2CC(c3ccc(F)cc3)Nc3nc(N)nn32)cc1OC (configuration not stated)	.	.	5	.	2
CCC(=O)N1CCc2cc(Br)cc(S(=O)(=O)CCC(=O)NCc3ccco3)c21	.	.	0	.	3
Cc1csc(NC(=O)CNS(=O)(=O)c2cccs2)n1	.	.	9	.	7
Cc1ccc(C)c2[nH]c(=O)c(CCNC(=O)c3ccc4c(c3)OCO4)cc12	.	.	-5	.	1
COCCCNC(=O)c1ccc(CS(=O)(=O)c2ccc(OC)cc2)o1	i	i	-4	i	-6
Cc1ccc(C(=O)N(CN2CCCC2=O)c2ccc(F)cc2)cc1C	.	.	3	.	2
O=C(NCc1cccnc1)c1cc(-c2ccco2)on1	.	.	16	.	-1
O=C(NCc1ccco1)C(NS(=O)(=O)c1cccc2nsnc12)c1ccccc1 (configuration not stated)	.	.	0	.	-3
COC(=O)C1=C(C)Nc2nc(-c3ccccc3)nn2C1c1ccc(C)o1 (configuration not stated)	.	.	0	.	0
O=C(Nc1ccc2c(c1)OCO2)c1cc2ncc(Br)cn2n1	i	i	7	i	14
CCCCOc1ccc(-c2nnn(CC(=O)NCc3ccco3)n2)cc1	i	i	-3	i	-8
CCCN1C2CCCC1CC(NC(=O)Nc1cccc(C(C)=O)c1)C2 (configuration not stated)	i	i	6	i	10

Complete entries as entered above. Order of screens: VCAM-1 imaging	VCAM-1 augmentation	FPRL1 ligand	VCAM-1 inhibition	FPR ligand
CCCN1C2CCCC1CC(NC(=O)Nc1cccc(C(C)=O)c1)C2 (configuration not stated) as listed: i	i	6	i	10
CCCCOc1ccc(-c2nnn(CC(=O)NCc3ccco3)n2)cc1 as listed: i	i	-3	i	-8
COC(=O)C1=C(C)Nc2nc(-c3ccccc3)nn2C1c1ccc(C)o1 (configuration not stated) as listed: .	.	0	.	0
O=C(NCc1ccco1)C(NS(=O)(=O)c1cccc2nsnc12)c1ccccc1 (configuration not stated) as listed: .	.	0	.	-3

Other entries follow:
Structure	VCAM-1 imaging	VCAM-1 augmentation	FPRL1 ligand	VCAM-1 inhibition	FPR ligand
Cn1cc(C(=O)NC2CCCCCCC2)c(=O)c2cc(S(=O)(=O)N3CCCC3)ccc21	i	i	-8	i	-1
COc1ccc(NC(=O)C2CCCN(S(=O)(=O)c3cccc4cccnc34)C2)cc1OC (configuration not stated)	i	i	3	i	1
COc1ccc(N(C(=O)COc2ccccc2)C2C=CS(=O)(=O)C2)c(OC)c1 (configuration not stated)	.	.	8	.	-8
O=S1(=O)CCN2C(=N1)SC1=C2CCN(Cc2ccccc2)C1	i	i	2	i	0
CCN(CC)S(=O)(=O)c1ccc(F)c(C(=O)NCCCN2CCOCC2)c1	.	.	0	.	-4
CC(=O)Nc1ccc(S(=O)(=O)NCc2ccc(C(=O)NCCN3CCCCCC3)cc2)cc1	.	.	15	.	11
O=C(O)CCc1ccc(-c2cccs2)n1NC(=O)c1ccco1	i	i	-2	i	13
COC(=O)c1c(C#N)c(N)nc2c1CCC2	i	i	7	i	9
COc1ccc(OC)c(C2=NOC(C(=O)Nc3cccnc3)C2)c1 (configuration not stated)	i	i	-1	i	-6

Screens as filed in PubChem.
